# Source: PubChem BioAssay
# KCNQ2 pot – enhances the rat KCNQ2 potassium channel; O88943; CHO-K1 KCNQ2, FluxOR thallium flux fluorescence; active compounds read high; B-score at 10 µM; 310,000 tested, 0.54% active;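 active means fluorescence ratio B-score at least 3 SD of library B-scores, with initial fluorescence B-score within 3 SD, cut at about 5.3 in these data; same plate scores as AID 2156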;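 further: B-score of peak minus minimum over baseline fluorescence ratio after K+ and Tl+ stimulus; positive B-score means potentiation of KCNQ2 with more thallium influx and brighter signal; only the inactives scoring about 0 or higher are listed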
# Target sequence (O88943 whole entry, looked up): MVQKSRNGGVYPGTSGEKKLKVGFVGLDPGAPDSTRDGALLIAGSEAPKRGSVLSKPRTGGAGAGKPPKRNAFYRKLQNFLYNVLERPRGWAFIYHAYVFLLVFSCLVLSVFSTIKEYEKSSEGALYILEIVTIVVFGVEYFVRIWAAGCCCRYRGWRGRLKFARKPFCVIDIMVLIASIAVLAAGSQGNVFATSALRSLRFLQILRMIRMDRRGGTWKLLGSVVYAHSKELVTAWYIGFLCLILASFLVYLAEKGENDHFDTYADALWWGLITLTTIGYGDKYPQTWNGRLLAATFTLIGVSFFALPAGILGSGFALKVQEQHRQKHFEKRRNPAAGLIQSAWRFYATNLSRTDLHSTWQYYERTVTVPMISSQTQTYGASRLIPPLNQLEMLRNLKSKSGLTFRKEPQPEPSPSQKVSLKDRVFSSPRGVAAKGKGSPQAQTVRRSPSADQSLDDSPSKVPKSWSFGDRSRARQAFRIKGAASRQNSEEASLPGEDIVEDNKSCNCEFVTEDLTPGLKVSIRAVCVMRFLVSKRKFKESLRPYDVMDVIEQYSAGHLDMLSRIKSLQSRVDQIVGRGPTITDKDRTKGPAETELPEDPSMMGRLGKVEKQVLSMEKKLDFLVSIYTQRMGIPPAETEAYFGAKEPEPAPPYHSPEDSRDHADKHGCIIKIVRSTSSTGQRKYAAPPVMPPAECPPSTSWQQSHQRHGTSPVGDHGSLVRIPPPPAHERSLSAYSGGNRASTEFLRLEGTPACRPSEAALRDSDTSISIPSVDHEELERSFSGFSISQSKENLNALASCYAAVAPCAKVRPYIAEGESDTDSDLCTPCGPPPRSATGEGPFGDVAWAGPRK
# KCNQ2 pot baseline – further read-out of KCNQ2 pot, marked with its call; B-score; compound at 10 µM; measured here: initial fluorescence intensity artifact check;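 brightness before thallium and not channel activity; 0 = typical well and far values either way flag optical interference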
# Active calls of the source: *. The list is partial; the hit share may differ from the screen's.
# The first three records as a preview:
# Under each structure: KCNQ2 pot | KCNQ2 pot baseline
COc1cccc(-c2csc(N3CCN(C(=O)Nc4ccccc4OC)CC3)n2)c1
  1.12 | -1.72
O=C(NCCN1C(=O)S/C(=C\c2ccc(OC(F)F)cc2)C1=O)c1cnccn1
  1.73 | 0.03
Cc1nc(-c2ccc3c(c2)CCC(=O)N3)cs1
  0.72 | 0.32

# Results, previewed entries included:
# Under each structure: KCNQ2 pot | KCNQ2 pot baseline
COc1cccc(-c2csc(N3CCN(C(=O)Nc4ccccc4OC)CC3)n2)c1
  1.12 | -1.72
O=C(NCCN1C(=O)S/C(=C\c2ccc(OC(F)F)cc2)C1=O)c1cnccn1
  1.73 | 0.03
Cc1nc(-c2ccc3c(c2)CCC(=O)N3)cs1
  0.72 | 0.32
Cc1ccc(CNC(=O)CSc2ccc(-c3ccco3)nn2)cc1
  1.53 | -1.11
CC(=O)n1nc(-c2ccccc2)nc1NCc1ccc(F)cc1
  0.57 | -1.06
O=C(Nc1ccc(S(=O)(=O)N2CCOCC2)cc1)c1ccc(=O)[nH]c1
  0.24 | -0.21
CCOP(=O)(Nc1ccc2oc(=O)c3ccccc3c2c1)OCC
  0.93 | 0.03
Cc1cc(CSc2ccccc2)ccc1NC(=O)COc1ccccc1
  4.56 | 1.34
COc1ccc2c(c1)C(C)=CC(C)(C)N2C(=O)CN1C(=O)CCC1=O
  1.4 | -0.66
Cc1ccc(OCC(=O)NNC(=O)C2CCN(c3nccc(C)n3)CC2)cc1
  1.48 | -0.16
CCOC(=O)C(NC(C)=O)C(=O)Nc1ccc(C)cc1C (stereo not given)
  0.21 | -0.09
CC(=O)/C(N=Nc1nc2c([nH]1)c(=O)n(C)c(=O)n2C)=C(\C)O
  0.35 | -1.5
CCCCNC(=O)C1C2C=CC3(CN(Cc4ccc(C)cc4)C(=O)C13)O2 (stereo not given)
  0.88 | 1.11
CC(=O)Nc1ccc(NC(=O)Cn2c(=O)n(-c3ccccc3)c(=O)c3oc4ccccc4c32)cc1
  0.66 | 2.07
CCOC(=O)c1ccc(COC(=O)c2cc(=O)[nH]c3ccccc23)o1
  0.07 | -0.05
Cc1ccc2oc(C(=O)N3CCC(N4CCSCC4)CC3)c(C)c2c1
  0.21 | 0.25
O=C(CN1CCN(S(=O)(=O)c2ccc(Cl)cc2)CC1)NCc1cccs1
  1.19 | 0.47
Cc1ccc(-c2csc(NC(=O)c3cccc([N+](=O)[O-])c3C(=O)O)n2)cc1
  0.8 | 0.55
CC(C)Cc1ccc(S(=O)(=O)NCC2CCCO2)cc1 (stereo not given)
  0.63 | -1.03
CCOc1ccc(NC(=O)C(CC(=O)O)Cc2ccc(Br)cc2)cc1 (stereo not given)
  0.45 | 1.95
CCCCC(CC)C(=O)NCCc1ccc(S(N)(=O)=O)cc1 (stereo not given)
  0.29 | -1.53
CCc1cc2cc(C)cc(C)c2[nH]c1=S
  0.15 | 0.47
COc1ccc(C2SCCN2C(=S)Nc2ccc(Cl)cc2)cc1 (stereo not given)
  0.54 | 0.06
CCCCNC(=O)CCn1nc(-c2ccccc2)ccc1=O
  0.31 | -1.6
Cc1csc(NC(=O)c2cccc(S(=O)(=O)N3CCN(C)CC3)c2)n1
  0.06 | -1.75
Cc1ccc(S(=O)(=O)N2CCC(N3CCN(C)CC3)CC2)cc1Cl
  0.54 | 0.32
COC(=O)CC1C(=O)NC2CCCCC2N1C(=O)CCl (stereo not given)
  0.14 | 0.45
NS(=O)(=O)c1cccc(NC(=O)CN2CCCc3ccccc32)c1
  0.01 | 0.36
CCCS(=O)(=O)N1CCC(C(=O)NC2CCCC(C)C2C)CC1 (stereo not given)
  0.07 | 0.33
C=CCn1c(COc2ccccc2)nnc1SCC(=O)NCC(=O)OCC
  0.28 | 1.41

# The list continues.
# Under each structure: KCNQ2 pot | KCNQ2 pot baseline
CCOC(=O)c1ccc(NC(=O)C2CCC(CNc3c(N4CCOCC4)c(=O)c3=O)CC2)cc1 (stereo not given)
  0.67 | -0.08
NC(=O)C1(N2CCCCC2)CCN(Cc2ccc(F)cc2)CC1
  0.28 | 1.9
CC(=O)N1CCc2c(sc(NC(=O)c3ccc(S(=O)(=O)N(C)C)cc3)c2C#N)C1
  2.47 | -1
Cc1cc(C)n2ncc(-c3cccc(Br)c3)c2n1
  1.17 | -0.07
C#CCOC(=O)Nc1ccc(OCC(F)(F)F)nc1
  1.18 | -0.57
O=C(CN1CCCCC1)Nc1c2c(nc3ccccc13)N(c1ccccc1)CC2
  0.37 | -1.26
COc1ccc(Cl)cc1C(=O)NC(=S)Nc1cc(-c2nc3ccccc3[nH]2)ccc1C
  0.13 | 0.58
CC(C)n1c(O)c(N=NC(=O)CNC(=O)CCc2ccccc2)c2ccccc21
  2.33 | 1.13
O=C(Nc1ccc(CN2CCCCC2)cc1)c1ccc2c(c1)OCO2
  0.2 | 0.36
Cc1cc(C)c(S(=O)(=O)n2ccc(-c3ccc(OCCN(C)c4ccccn4)cc3)n2)c(C)c1
  0.08 | -0.31
COc1cc(C(=O)NCc2ccccc2)ccc1OC(F)F
  1.02 | -1.62
O=c1cc(-c2ccccc2)[nH]c2nc3ccccc3n12
  0.32 | 1.14
COc1ccc(NC(=O)CCC(=O)NCc2ccco2)c([N+](=O)[O-])c1
  0.56 | -0.34
COc1ccc(CCNC(=O)c2ccc3nc4cc(Cl)ccc4c(=O)n3c2)cc1OC
  0.32 | -0.22
C=CCN(c1ccccc1)S(=O)(=O)c1c(C)[nH]c(=O)[nH]c1=O
  1.03 | 0.76
CCc1ccc(NC(=O)C(=O)NCCN2CCN(S(=O)(=O)c3ccccc3)CC2)cc1
  1.47 | 2.01
Cc1cc(NC(=O)Nc2ccccc2)n(-c2ccccc2)n1
  1.13 | 2.28
Cc1ccc(C(=O)OCC(=O)N(C)C2CCS(=O)(=O)C2)cc1S(=O)(=O)N1CCCCC1 (stereo not given)
  0.4 | 1.71
FC(F)(F)c1cccc(NC(=S)NCc2ccc(Cl)cc2)c1
  1.72 | -1.1
CCC(C)c1ccc(NC(=O)CN(C)CC(=O)Nc2cccc(OC)c2)cc1 (stereo not given)
  1.21 | -2.51
CC1CC1C(=O)OCC(=O)Nc1ncc(Cl)cc1Cl (stereo not given)
  2.2 | -2.05
CC(C)Cc1nc(C#N)c(N2CCC(C(N)=O)CC2)o1
  0.05 | 1.91
COc1ccc(NC2SC(=O)N(CC(=O)O)C2=O)cc1 (stereo not given)
  0.3 | 1.96
COc1ccc(C(=O)NNC(=O)C(=O)Nc2ccc(C)c(Cl)c2)cc1
  3.56 | -0.4
Cc1ccc(OCC(=O)Oc2ccccc2[N+](=O)[O-])cc1
  1.14 | 0.92
O=C(O)c1cccc(C(=O)O)c1Br
  0.8 | 0.03
CC(=O)c1ccc(NC(=S)NCc2ccco2)cc1
  0.14 | 0.02
O=[N+]([O-])c1ccc(Nc2ccccc2F)nc1
  5.35* | -0.75*
CCc1ccccc1NC(=O)C1CCCC1
  0.41 | -0.09
CC(C)(C)n1ncc2c(=O)n(Cc3cccc(Cl)c3)cnc21
  0.89 | 0.1

# Continuation.
# Under each structure: KCNQ2 pot | KCNQ2 pot baseline
O=C(NNC(=O)c1ccncc1)Nc1cccc(C(F)(F)F)c1
  0.3 | 1.3
Cc1ccc(S(=O)(=O)N(C)C)cc1NC(=O)COC(=O)c1ccc2c(c1)OCO2
  0.65 | 1.5
COc1ccc(-c2ccnc3c(C#N)cnn23)cc1
  0.42 | 0.56
CC(Sc1ccsc1[N+](=O)[O-])C(=O)NCCc1ccc(Cl)cc1 (stereo not given)
  0.37 | 0.85
CN(Cc1ccccc1)C(=O)CCS(=O)(=O)c1ccc2c(c1)n(C)c(=O)c(=O)n2C
  0.73 | 0
Cn1c(=O)c2c(nc(SCc3ccc(F)cc3)n2C)n(C)c1=O
  0.01 | -0.45
CC(C(=O)NCC1CCCCC1)N(C)CC(=O)Nc1ccc(N2CCOCC2)cc1 (stereo not given)
  0.88 | 1.42
O=C(Nc1ccccc1)N1CCc2ccccc2C1
  0.4 | 0.5
COc1cccc(CNc2ccc(F)c([N+](=O)[O-])c2)c1O
  0.64 | -2.58
Cc1cccc(NC(=O)c2cccc(N3C(=O)C4C5CCC(C5)C4C3=O)c2)c1C (stereo not given)
  0.65 | -0.92
COc1ccc(Cn2c(CCC(=O)NCc3ccco3)nc3cccnc32)cc1
  1.89 | -0.08
NC(=O)C1(N2CCCCC2)CCN(C2CC(=O)N(CCc3ccccc3)C2=O)CC1 (stereo not given)
  0.61 | 0.86
CC(C)NS(=O)(=O)c1ccc(NC(=O)c2cccnc2)cc1
  1.04 | 0.06
CC(C)C(=O)Nc1ccc2c(c1)nc(CCN1CCN(C)CC1)n2C
  0.59 | -0.46
COc1ccc(C(=O)OCC(=O)c2ccc(C)c(S(=O)(=O)N3CCOCC3)c2)cc1OC
  0.51 | -0.32
CCCNC(=O)C1(CC2CC(c3ccccc3)=NO2)CCN(C(=O)C2(C)CC2)CC1 (stereo not given)
  1.22 | 0.37
COc1cc2[nH]c(=O)n(CCC(=O)N3CCC(N4CCCCC4)CC3)c(=O)c2cc1OC
  0.1 | 0.98
O=c1c2ccccc2sn1-c1ccc(S(=O)(=O)N2CCCC2)cc1
  1.71 | 1.13
CCCc1nnc(SCc2ccc(C(=O)OC)o2)n1N
  1.09 | 0.04
CC(OC(=O)CC1CCCC1)C(=O)Nc1ccc(S(N)(=O)=O)cc1 (stereo not given)
  0.76 | 0.87
CCn1cc(S(=O)(=O)NCc2ccc(OC)cc2)cn1
  0.58 | 1.7
COc1ccc(-c2nnc3n2N=C(C)CS3)cc1OC
  0.65 | 0.84
CCOc1ccc(NC(=O)Cn2nnc(C(=O)NCc3ccc(OC)cc3)c2N)cc1
  0.5 | 2.09
O=C(CN1C(=O)CCSc2ccccc21)Nc1cccc(F)c1
  1.13 | 0.2
Cc1c(C(=O)Nc2cccc(S(=O)(=O)N3CCCC3)c2)oc2ccccc12
  0.03 | -0.03
COc1ccc2[nH]c(CN3CCC(n4nccc4NC(=O)C4CC4)CC3)c(C)c2c1
  1.34 | -2.23
Cc1ccc(C(=O)NCC(=O)OCC(=O)N2CC(C)OC(C)C2)cc1 (stereo not given)
  1.95 | -2.67
COc1ccc(/C=N/NC(=O)c2cccc(NC(=O)c3ccccc3Cl)c2)cc1
  2.97 | -0.94
COc1ccc2[nH]c(C(=O)Nc3ccc(C)c(F)c3)cc2c1
  0.87 | -0.34
CCOc1ccc(OC(=O)c2cccc(S(=O)(=O)N3CCN(C)CC3)c2)cc1
  0.66 | 0.42

# Next section.
# Under each structure: KCNQ2 pot | KCNQ2 pot baseline
Fc1ccccc1CSc1nnc(Cn2cnc3ccccc32)n1-c1ccccc1
  1.18 | -3.19
CCn1ccnc1CN(C)C(=O)CCc1nnc(CCC2CCCCC2)o1
  0.29 | -0.51
Cc1ccc(OCCNC(=O)CNC(=O)c2ccc(C)cc2)cc1
  1.87 | -1.26
CCN(C(=O)c1ccc(NC(C)=O)cc1)c1ccccc1C
  1.11 | -0.06
Nc1nn(-c2ccccc2)c2ccc([N+](=O)[O-])cc12
  1.79 | 0.17
COc1cc(C2C(C#N)=C(N)Oc3n[nH]c(-c4cccnc4)c32)ccc1OCC(N)=O (stereo not given)
  0.87 | -0.06
COc1ccc(C(=O)N2CC3(CC(c4ccc(Cl)cc4)=NO3)C[C@H]2C(=O)NCC(N)=O)cc1 (stereo not given in full)
  2.34 | 0.98
CC1=C(C(=O)Nc2ccccc2C(=O)NCCCN2CCN(C)CC2)SCCO1
  0.14 | -0.07
COc1ccc(/C=C2\SC(=S)N(CCC(=O)NCCCN3CCOCC3)C2=O)cc1
  1.45 | 1.8
CCS(=O)(=O)C1=NSC2=NC(=O)/C(=C\c3ccc(OS(=O)(=O)c4ccccc4)c(OC)c3)C(=N)N21
  1.21 | -1.61
COc1ccc(-c2nnc3n2-c2ccccc2SC3)cc1OC
  0.39 | -0.94
O=c1c2ccccc2nc(COc2ccccc2)n1/N=C/c1cn[nH]c1-c1ccccc1
  0.52 | 0.09
CC(C)c1ccc(-c2nc(N3CCCC3)nc3n[nH]c(N)c23)cc1
  0.99 | 0.81
COc1ccc(NC(=O)c2ccccc2-c2ccccc2)cc1
  1.53 | -0.29
CCC(C)c1ccc(NC(=S)NN2CCOCC2)cc1 (stereo not given)
  0.98 | 0.09
COc1ccccc1NC(=O)c1cc([N+](=O)[O-])ccc1NCCN1C(=O)CCC1=O
  0.87 | -0.68
COc1ccc([N+](=O)[O-])cc1N(CC(=O)N(C)C)S(C)(=O)=O
  0.52 | 2.08
O=C1CC(CC(=O)N/N=C/c2ccccc2[N+](=O)[O-])=NN1
  0.05 | -0.51
CCCOC(=O)C1[C@H]2C(=O)N(C(C)c3ccc(OC)cc3)C[C@]23C=C[C@H]1O3 (stereo not given in full)
  0.88 | 0.21
Cn1cc(/C=C(\NC(=O)c2ccccc2Cl)C(=O)NCCCn2ccnc2)c2ccccc21
  0.21 | 3.5
CCSCCC(NC1=CC(=O)CC(C)(C)C1)C(=O)O (stereo not given)
  0.87 | 0.98
CCc1ccc(/C=N/NC(=O)Cc2ccc(OC)c(OC)c2)s1
  0.68 | 1.87
NS(=O)(=O)c1ccc(Nc2nc(-c3ccc(F)cc3)cs2)cc1
  0.68 | -1
C/C(CC(=O)Nc1ccccc1C(F)(F)F)=N\NC(=O)c1cnccn1
  0.61 | -0.39
NC(=O)CC(NC(=O)Cc1ccc(Br)cc1)c1ccc(N2CCc3ccccc3C2)c([N+](=O)[O-])c1 (stereo not given)
  4.06 | -0.11
COc1ccc(NC(=O)Cn2cccc2)c(OC)c1
  0.09 | 1.22
O=C(CN1CCCC1=O)NC1C2CC3CC(C2)CC1C3 (stereo not given)
  0.01 | 0.65
C=CCN1C(=O)c2ccc(C(=O)OCC(=O)N(C)C3CCCCC3)cc2C1=O
  0.05 | 0.11
Cc1ccc(CN2CCNC(=O)C2CC(=O)NCc2csc(C(C)C)n2)cc1 (stereo not given)
  0.04 | 1.06
Cc1cc(Cl)ccc1OCC(=O)NNC(=O)c1cnccn1
  0.09 | -0.63
COC(C[C@H]1O[C@H]1[C@@H](O)COCc1ccccc1)OC
  0.45 | 0.03
